KCNK9 block = human KCNK9 channel inhibition; Q9NPC2; HEK293 KCNK9, FluxOR thallium flux fluorescence; hits give low values; B-score at 10 µM; 310,000 tested, 1.2% active; AID 488922;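 active means ratio B-score over 3 SD below the library mean, with starting fluorescence within 5 SD of its mean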;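 further: negative B-score means less thallium flux so channel inhibition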
Target sequence (Q9NPC2 whole entry, looked up): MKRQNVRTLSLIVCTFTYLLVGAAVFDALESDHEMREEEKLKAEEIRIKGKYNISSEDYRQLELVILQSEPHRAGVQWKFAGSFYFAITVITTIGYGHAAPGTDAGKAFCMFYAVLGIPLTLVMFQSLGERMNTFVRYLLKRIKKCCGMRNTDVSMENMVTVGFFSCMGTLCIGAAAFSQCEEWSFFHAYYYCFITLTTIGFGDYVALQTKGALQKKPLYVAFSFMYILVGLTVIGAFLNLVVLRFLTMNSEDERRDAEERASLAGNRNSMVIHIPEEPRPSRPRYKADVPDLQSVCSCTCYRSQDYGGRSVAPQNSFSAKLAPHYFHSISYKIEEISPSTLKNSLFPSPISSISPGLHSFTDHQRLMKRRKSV
HDAC3 inhib = human HDAC3 inhibition. O15379. recombinant HDAC3, fluorogenic peptide/trypsin coupled, fluorescence. inhibition, % at 8.3 µM. 320,000 tested, 0.15% active. AID 2718; in the data active means inhibition above about 26%, passing the limit was not always enough
hERG rescue = compounds protecting human hERG from proarrhythmic drug block; Q12809; activation (rescue from dofetilide block), less the hit threshold, % at 10 µM; CHO-hERG, FluxOR thallium flux, dofetilide IC70 present; 310,000 tested, 0.51% active;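 active means activation above the mean of controls blocked by dofetilide plus 5 SD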;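 further: thallium influx through hERG after potassium depolarization seen as dye fluorescence rise; in these data hits start at about 4.7%; inactives centre near -7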
KCNQ1 pot = potentiates or activates the human KCNQ1 potassium channel; P51787; CHO-K1 KCNQ1, thallium flux FluxOR fluorescence; hits give high values; B-score at 10 µM; 310,000 tested, 0.35% active; AID 2648;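 active means fluorescence ratio B-score, a plate-corrected score, at least three library SD, with initial intensity B-score within 5 SD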
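assay system = CHO-K1 cells stably expressing KCNQ1 | medium = assay buffer, equal DMSO in all wells | timing = 37 °C overnight plating, 90-min dark dye load, 20-min compound pretreatment | measured by = kinetic FluxOR thallium fluorescence, 10-s 1-Hz baseline, 110-s post-stimulus read | measure = fluorescence change relative to baseline, converted to B score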
RGS4 pot = RGS4 potentiation or activation; 310,000 tested, 0.92% active; B-score at 10 µM; HEK293 M3R/inducible RGS4, carbachol calcium flux Fluo4; hits give low values;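 active means B-score of the integrated calcium signal more than 4 SD below the library mean, with starting fluorescence not abnormally high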;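 further: negative B-score means reduced calcium response which marks RGS4 activation or potentiation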
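Test system: HEK293 cells with stable M3R and inducible RGS4; also added: carbachol at ECmax as muscarinic agonist stimulus; schedule: dye loading 30 min 37 °C, buffer rest 30 min RT; technique: kinetic calcium fluorescence imaging with Fluo4-AM dye, 2 µM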
GSK3 alpha inh = inhibitors of human GSK-3 alpha kinase; P49840; ADP-Glo luminescence, 60 min; inhibition, % at 10 µM; 320,000 tested, 0.1% active; AID 2650;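 in the data active means inhibition above about 50%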;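 further: GST-tagged GSK-3 alpha with peptide substrate and 25 µM ATP; 0% = DMSO neutral wells and 100% = GW8510 positive control wells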
KCNQ1 inh = inhibitors of human KCNQ1 potassium channel; P51787; CHO-K1 KCNQ1, FluxOR thallium flux fluorescence; hits give high values; B-score at 10 µM; 310,000 tested, 1.3% active; AID 2642;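 active means compounds whose thallium flux B-score, printed positive for inhibition, exceeds three library SD while starting fluorescence stays within three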;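 further: channel opened by potassium depolarization with thallium stimulus after 20 min compound exposure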
PolyA inh = yeast polyadenylation inhibition | calls only at 12 µM | 300,000 tested, 0.02% active | S. cerevisiae SKY197-pL101 polyadenylation reporter, beta-gal luminescence; efflux-impaired pdr1/pdr3 knockout yeast; score 100 = 6 SD above DMSO;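 active means lowest replicate activity score at least 50, where 100 means six control SD above control mean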;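 further: yeast exposed to compound for 9 h at 30 °C; higher score means more reporter readthrough which indicates perturbed polyadenylation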
KCNK3 block = human KCNK3 channel inhibition, primary screen; O14649; CHO-KCNK3 thallium flux, FluxOR fluorescence; hits give low values; B-score at 10 µM; 340,000 tested, 0.84% active; AID 602410;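 active means B-score under library mean minus 4 SD, starting fluorescence ratio at most library mean plus 5 SD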;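 further: more negative B-score means stronger inhibition of thallium flux through KCNK3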
Target sequence (O14649 whole entry, looked up): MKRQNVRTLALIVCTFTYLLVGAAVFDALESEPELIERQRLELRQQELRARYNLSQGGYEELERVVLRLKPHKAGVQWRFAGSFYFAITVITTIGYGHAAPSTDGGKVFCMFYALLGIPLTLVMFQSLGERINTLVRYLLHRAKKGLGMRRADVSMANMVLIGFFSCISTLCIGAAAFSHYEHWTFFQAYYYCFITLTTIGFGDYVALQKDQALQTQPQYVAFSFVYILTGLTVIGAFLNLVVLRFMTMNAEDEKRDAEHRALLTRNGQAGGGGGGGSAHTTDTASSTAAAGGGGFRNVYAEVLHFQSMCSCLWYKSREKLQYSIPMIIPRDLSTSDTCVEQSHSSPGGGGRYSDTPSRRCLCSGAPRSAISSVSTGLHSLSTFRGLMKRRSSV
GSK3B inh = human GSK3beta kinase inhibition. GST-GSK3beta kinase, ADP-Glo luminescence, 60 min; hits give low values. activity score (negative = inhibition), % at 10 µM. 300,000 tested, 0.038% active;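 active means more than half of replicate wells score below -50%, meaning over 50% inhibition versus plate controls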;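 further: 0% = median DMSO wells and -100% = median GW8510 positive control wells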
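Assay system: GST-tagged human GSK3beta kinase, cell-free; Input: 1.6 ng GSK3beta; Medium: Tris/MgCl2 kinase buffer; Timing: 60 min enzyme reaction, room temperature; Signal: ADP-Glo luminescence quantifying ADP generated by kinase; Evaluation: score relative to plate controls; Benchmarks: DMSO neutral wells and GW8510 at 20 µM as positive.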
An asterisk follows results filed as active; i = inactive; . = not tested or not shown.

Compound	KCNK9 block	HDAC3 inhib	hERG rescue	KCNQ1 pot	RGS4 pot	GSK3 alpha inh	KCNQ1 inh	PolyA inh	KCNK3 block	GSK3B inh
COCC(C)NS(=O)(=O)c1ccc(NC(=O)C(Cc2ccccc2)NC(N)=O)cc1 (stereo not drawn)	i	-3	-12	i	i	-1	i	i	i	-2
CC1Cc2ccccc2N1C(=O)CNc1ccccc1N1CCCCC1 (stereo not drawn)	i	2	-14	i	i	0	7*	i	i	7
N#Cc1cc2ccccc2nc1SCC(=O)Nc1ccc(S(=O)(=O)N2CCCC2)cc1	i	4	-12	i	i	0	i	i	i	-2
COc1ccc(OCC(=O)O/N=C(\N)Cc2ccc(Cl)cc2Cl)cc1	i	9	-2	i	i	2	i	i	i	1
O=C(CN1CCN(Cc2ccc(Cl)cc2)CC1)N/N=C/C=C/c1ccccc1[N+](=O)[O-]	i	4	-14	i	i	-1	i	i	i	2
COc1ccc2nc(SCC(=O)NC(C)C)[nH]c2c1	i	-7	-8	i	i	2	i	i	i	3
CSc1nc(NCC(C)O)c2c3c(sc2n1)CN(C)CC3 (stereo not drawn)	i	-26	-2	i	i	48	i	i	i	-54*
Cc1c(C(=O)O)oc2c1ccc1ccccc12	i	-9	-8	i	i	6	i	i	i	5
COc1cc(/C=C2\SC(=N)N(c3ccc(F)cc3)C2=O)ccc1O	i	-1	-4	i	i	1	i	i	i	4
CCC(=O)N(CCC(c1ccc(C)cc1)c1ccco1)Cc1ccco1 (stereo not drawn)	-16*	.	-12	i	i	-2	i	i	i	0
Fc1ccc(/C=N/n2c(C3CCCCC3)n[nH]c2=S)cc1	i	5	-4	i	i	7	i	i	i	-4
c1cc(C(c2nnnn2C2CCCC2)N2CCOCC2)ccn1 (stereo not drawn)	i	-4	-11	i	i	1	i	i	i	-2
CN(Cc1ccco1)c1ncnc2ccc(-c3ccc4c(c3)OCO4)cc12	.	6	.	.	.	10	.	.	i	.
C=CCNc1cnn(-c2ccccc2)c(=O)c1Cl	i	-4	-6	i	i	0	i	i	i	-1
C/C(CCc1oc2ccccc2c1-c1ccc(C)o1)=N/O	i	4	-6	i	i	-5	i	i	i	1
O=C(O)CCNc1cc2ccccc2cc1C(=O)O	i	-1	-8	i	i	3	i	i	i	2
Cc1c(C=O)c2ccccn2c1C(=O)c1ccccc1	i	.	-3	i	i	.	i	i	i	2
CSc1nc2sc3c(c2c2nncn12)CCC3	i	-1	-1	i	i	-2	i	i	i	-2
Cc1ccc(C2=NNC(C(O)C(O)C(O)CO)S2)cc1 (stereo not drawn)	i	2	-6	i	i	-1	i	i	i	-2
Cc1ccc2nc(NC(=O)C3CSC4(C)CCC(=O)N34)sc2c1 (stereo not drawn)	i	5	-15	i	i	-1	i	i	i	1
COc1ccc(C2=NOC(C(=O)NCc3ccc(F)cc3)C2)cc1OC (stereo not drawn)	i	-1	-11	i	i	0	i	i	i	-5
COc1cccc(OCCNC(=O)CSc2ccc(C(F)(F)F)cc2[N+](=O)[O-])c1	i	5	-8	i	i	-3	i	i	i	7
CN(C)c1oc(/C=C/c2ccccc2)nc1C#N	i	-76	-13	i	i	-3	i	i	i	-4
CCC(=O)/C=C1\Sc2ccc(OC)cc2N1CCO	i	5	-3	i	i	6	i	i	i	1
Cc1ccc(N2C=Nc3ccc(C)c4nc(C)cc2c34)cc1	i	-15	-5	i	i	4	i	i	i	-1
Cc1cc(NC(=O)C2CC(c3ccc(F)cc3)=NO2)no1 (stereo not drawn)	i	0	-9	i	i	-1	i	i	i	-3
Cc1cc(SCC(=O)N2CCC(c3noc4ccc(F)cc34)CC2)nc2ccccc12	i	-5	-12	i	i	1	i	i	i	5
O=C(NN=Cc1ccccc1C(=O)O)c1ccc(NS(=O)(=O)c2cccs2)cc1	.	6	.	.	.	-4	.	.	i	.
COc1ccc2cc(C#N)c(N3CCN(Cc4nnnn4CCC(C)C)CC3)nc2c1	i	-1	-8	i	i	5	i	i	i	0
COc1ccc(CN(CCC(c2ccco2)C(C)C)C(C)=O)cc1OC (stereo not drawn)	i	9	-10	i	i	-3	i	i	i	-1
COc1ccc2nc(C(F)(F)Cl)c(C#N)c(N)c2c1	i	6	-4	i	i	5	i	i	i	0
COc1ccc(C(c2nnnn2C2CCCC2)N2CCc3ccccc3C2)cc1OC (stereo not drawn)	i	.	-9	i	i	.	i	i	i	1
CCCCSc1nnc(-c2ccc(C)cc2)o1	i	3	-8	i	i	0	i	i	i	0
COc1ccc2sc3c(=O)[nH]c4ccccc4c3c2c1	i	2	-10	i	i	-3	i	i	i	0
CC(C)CC(=O)NC(=S)Nc1cccc2nsnc12	i	.	-12	i	i	.	i	i	i	-2
CSc1nc(Oc2ccc(Cl)cc2)c2sccc2n1	i	-2	-7	i	i	-1	i	i	i	-2
COC(=O)C1=NN(c2ccccc2)C2C(=O)N(c3ccccc3OC)C(=O)C12 (stereo not drawn)	i	-1	-11	i	i	0	i	i	i	1
Cc1ccc(CNc2cc(-c3nn4c(C)nnc4s3)ccc2C)s1	i	2	-2	i	i	-2	i	i	i	0
Nc1nc(OCC2CCCCC2)c2[nH]cnc2n1	i	1	-3	i	i	10	i	i	i	0
CCn1c(COc2ccc(C)cc2)nnc1SCC(=O)NNC(=O)c1ccc(OC)cc1	i	-1	-4	i	i	-1	i	i	i	1
N#Cc1ccc(/C=C/C(=O)c2ccco2)cc1	i	1	-6	i	i	0	i	i	i	1
CCOc1ccc(-c2cc(C(=O)Nc3ccc4c(c3)OCCO4)c3ccccc3n2)cc1	i	5	-32	i	-7.6*	-1	i	i	i	3
O=C(NC(=S)Nc1ccc2[nH]ncc2c1)c1ccccc1	i	3	-7	i	i	24	i	i	i	-16
COc1ccc(/C=N/NC(=O)c2cccc(C(=O)N/N=C/c3ccc(OC)cc3)n2)cc1	i	-1	-4	i	i	-2	i	i	i	1
Cc1ccc(S(=O)(=O)N2CCN(c3ccc4nnc(-c5ccccc5)n4n3)CC2)cc1	.	.	.	.	.	.	.	.	i	.
O=C(OCCCOC(=O)c1ccc(O)cc1)c1ccc(O)cc1	i	9	-23	i	i	.	i	.	i	-80*
CCOC(=O)CNc1nnc(SCC(=O)OCC)[nH]c1=O	i	17	0	i	i	-1	i	i	i	4
C=CCSc1nc(Oc2ccccc2)c2sccc2n1	i	-2	-6	i	i	-1	6*	i	i	-4
CC(NC(=O)Nc1ccccc1C(F)(F)F)C1CCCO1 (stereo not drawn)	i	0	-11	i	i	4	i	i	i	-1
CC(C)C(c1nnnn1C1CCCCC1)N1CCc2ccccc2C1 (stereo not drawn)	i	3	-4	i	i	-2	i	i	i	-3
CC(=O)c1cccc(S(=O)(=O)NC2CCSc3ccccc32)c1 (stereo not drawn)	i	6	-5	i	i	-2	i	i	i	-27
OCCSc1nc(-c2cccnc2)nc2ccccc12	i	-10	-22	i	i	3	i	i	i	-4
Cc1ccc(SCC(=O)Nc2ccc(S(N)(=O)=O)cc2)cc1	i	3	-5	i	i	0	i	i	i	-1
CCOc1ccc(-n2c(N)c(C(=O)NCc3ccco3)c3nc4ccccc4nc32)cc1	i	-19	-8	i	i	25	i	i	i	0
CCCCN(C(=O)NC(=O)Nc1nc2ccc(OC)cc2s1)S(C)(=O)=O	i	-5	-10	i	i	22	i	i	i	-4
Cc1nc(N2CCN(C(=O)c3ccco3)CC2)c2c3c(sc2n1)CCCC3	i	-3	-15	i	i	7	i	i	i	-1
CCN1CCN(C(=O)C2CC(c3ccc(F)cc3)=NO2)CC1 (stereo not drawn)	i	-1	-5	i	i	2	i	i	i	0
COc1ccc(-n2ccsc2=S)cc1	i	2	2	i	i	-5	i	i	i	-4
Cc1ccc(CCNC(=O)C2CCCN(c3nc4ccccc4o3)C2)cc1 (stereo not drawn)	i	3	-14	i	i	-3	i	i	i	2
Cc1c(/C=N/NC(=O)c2cc(=O)[nH]c(=O)[nH]2)c2ccccn2c1C(=O)c1ccccc1	i	-5	-4	i	i	-6	i	i	i	3

KCNQ1 inh: hit marks shown above
SMILES,KCNK9 block,HDAC3 inhib,KCNQ1 pot,GSK3 alpha inh,KCNQ1 inh,PolyA inh,KCNK3 block,GSK3B inh
CC1Cc2ccccc2N1C(=O)CNc1ccccc1N1CCCCC1 (stereo not drawn),i,2,i,0,7*,i,i,7
C=CCSc1nc(Oc2ccccc2)c2sccc2n1,i,-2,i,-1,6*,i,i,-4

Later entries.
Compound	KCNK9 block	HDAC3 inhib	hERG rescue	KCNQ1 pot	RGS4 pot	GSK3 alpha inh	KCNQ1 inh	PolyA inh	KCNK3 block	GSK3B inh
CC1=CCC(C(=O)O)C(C(=O)Nc2ccc(-c3nc4ccc(C)cc4s3)cc2)C1 (stereo not drawn)	i	-26	-18	i	i	-2	i	i	i	3
CN(C)S(=O)(=O)NCc1ccc2c(c1)OCO2	i	-5	0	i	i	-1	i	i	i	-1
O=C(COc1ccccc1Cl)NC(=O)NC1CCCC1	.	1	.	.	.	0	.	.	i	.
COc1ccccc1NC(=O)C1=C(C)Nc2nc3ccccc3n2C1c1cccs1 (stereo not drawn)	i	1	-10	i	i	8	i	i	i	0
CC(=O)SC(C[N+](=O)[O-])c1cn(C(C)=O)c2ccccc12 (stereo not drawn)	i	3	-31	i	i	2	i	i	i	-1
CCOC(=O)C1=C(COC(=O)c2cccc(NC(C)=O)c2)NC(=O)NC1C (stereo not drawn)	i	2	-6	i	i	1	i	i	i	-2

These rows are one share of the data; the hit share may differ from the screen's.
